# Mtb growth – M. tuberculosis H37Rv growth inhibitors, H37Rv strain (AID 1626) | inhibition, % at 10 µM, or IC50 in µM where a hit was titrated | M. tuberculosis H37Rv growth inhibition; higher % means a stronger effect | actives 0.95% (n = 220,000);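 active = confirmed in a dose series; inconclusive = inhibition above 80% but not taken into the dose series; inactive = below 80% or under 30% at every dose of the series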;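 note: bacteria incubated seven days before Alamar blue readout; 0% = bacteria only wells and 100% = bacteria with antibiotic wells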
# Mtb betalactam – beta-lactam sensitization of Mtb H37Rv; M. tuberculosis H37Rv growth with meropenem, percent inhibition; hits of this screen are not shown here; inhibition, % at 25 µM; actives 0.27% (n = 330,000); AID 434955;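 active = about 74% or more and at least 40 points above the plate without the antibiotic, then above 30% in a dose series; inconclusive = first-round hits that could not be retested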;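 note: growth measured after seven days incubation then overnight dye step; 0% = bacteria only wells and 100% = bacteria with antibiotic; twin plates without the antibiotic show which effects depend on it; some results filed as inactive read as strong as hits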
# YopH inh – YopH (Yersinia) phosphatase inhibition | fluorescence Ex485/Em525 | inhibition, %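 (about 10 µM by stock and volumes)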 | actives 0.16% (n = 140,000);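 active = inhibition of 50% or more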;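 note: controls were vehicle for no effect and minimum signal wells for full effect; inactives centre near -20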
# Arbovirus inh – arbovirus infection inhibition; arbovirus infection cell-based antiviral screen; inhibition, % at 10 µM; actives 0.37% (n = 200,000); AID 1251;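 active = inhibition from about 30%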;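 note: bluetongue infection of BSR cells; cell survival read as ATP light after 72 h; 0% = infected wells without compound and 100% = uninfected wells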
# RecA splice inh – Mtb RecA intein splicing inhibition. cell-free RecA intein splicing, fluorescence. AID 2221. actives 0.75% (n = 290,000). inhibition, %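 (about 9 µM by stock and volumes)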; in the data active = inhibition above about 30%; inconclusive = no clear call, values can overlap the other calls;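 note: 0% = vehicle wells and 100% = reference inhibitor control wells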
# Target sequence (P9WHJ3 whole entry, looked up, canonical isoform): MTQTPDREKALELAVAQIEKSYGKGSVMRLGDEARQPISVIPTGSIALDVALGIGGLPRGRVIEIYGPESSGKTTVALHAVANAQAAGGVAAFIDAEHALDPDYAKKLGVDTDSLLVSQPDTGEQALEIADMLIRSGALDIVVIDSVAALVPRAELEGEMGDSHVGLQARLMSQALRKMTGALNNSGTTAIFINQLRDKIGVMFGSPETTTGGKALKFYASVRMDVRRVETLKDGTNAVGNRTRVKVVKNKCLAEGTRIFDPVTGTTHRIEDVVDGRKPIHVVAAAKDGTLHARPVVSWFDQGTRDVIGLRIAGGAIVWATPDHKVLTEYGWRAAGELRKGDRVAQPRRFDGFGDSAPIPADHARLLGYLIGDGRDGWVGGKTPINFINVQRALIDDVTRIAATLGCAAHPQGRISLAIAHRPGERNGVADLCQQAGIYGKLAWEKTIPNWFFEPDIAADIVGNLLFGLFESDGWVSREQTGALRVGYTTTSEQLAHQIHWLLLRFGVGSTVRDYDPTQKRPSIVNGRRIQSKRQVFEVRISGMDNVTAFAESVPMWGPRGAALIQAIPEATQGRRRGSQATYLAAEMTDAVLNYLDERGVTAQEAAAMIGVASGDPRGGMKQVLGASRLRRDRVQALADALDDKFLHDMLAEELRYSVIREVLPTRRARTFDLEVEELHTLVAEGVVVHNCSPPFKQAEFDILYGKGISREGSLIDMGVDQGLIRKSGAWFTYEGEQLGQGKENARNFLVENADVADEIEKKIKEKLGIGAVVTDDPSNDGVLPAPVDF
# Arbovirus inh repeat – recorded beside Arbovirus inh, whose call it bears; inhibition, %; measured here: 10K subset replicate screen; many hits read low in the repeat;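 first of two repeat runs on a subset; 0% = infected and 100% = uninfected wells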
# * marks the source's active call; other numbers are inactive results; ? = inconclusive; / = no result given. Only part of the results is shown. The share of hits here may be higher or lower than overall.
SMILES,Mtb growth,Mtb betalactam,YopH inh,Arbovirus inh,RecA splice inh,others
COC(=O)C1=C(C(=O)OC)[C@@H]2N(C)c3ccccc3[C@@]23C[C@@H](CO)N(C(=O)NCCBr)C3=N1,-14%,-15,/,/,-0.3,
O=C(NCc1ccc(N2CCCC2=O)cc1)Nc1ccccc1,-14%,-5,-13,4,-0.7,
Cc1noc(NS(=O)(=O)c2ccc(NC(=O)CCCOc3ccc(Cl)cc3Cl)cc2)c1C,-1%,4,92*,6,-1.7,
Cc1ccccc1C(=O)Nc1ccccc1NC(=O)c1ccccc1C,/,6,/,/,1.5,
O=c1[nH][nH]c2cc(=O)n(-c3ccc(Cl)cc3)nc12,1%,0,/,-2,-0.3,
COC(=O)c1ccccc1NC(=O)CNc1cc(Cl)ccc1N1CCOCC1,7%,-8,-28,23,1.9,
CCc1nnc(NC(=O)CSc2nnc(-c3cccnc3)n2CC)s1,-8%,-6,-1,-7,-0.6,
CC(C)OCCCNC(=O)CNC(=O)c1cccs1,-11%,0,-38,-2,0.2,
COc1ccc(-c2nc(-c3cccnc3)no2)cc1OC,-11%,-5,/,/,-0.4,
CCc1ccc(/C=C2\SC(=S)N(CCCC(=O)Nc3nccs3)C2=O)cc1,0%,6,-6,1,-1.4,
CC1(C)C2CC[C@]3(C)C(CC=C4[C@@H]5C[C@@](C)(CO)CC[C@]5(C(=O)O)CC[C@]43C)[C@@]2(C)CC[C@@H]1O (stereo partly drawn),-5%,-7,/,/,7.0,
O=C(NC(=S)NNC(=O)[C@H]1C[C@@H]1c1ccccc1)c1cccc(F)c1,67%,89,/,/,5.9,
O=S(=O)(Nc1nc2ccc(S(=O)(=O)N3CCCC3)cc2s1)c1ccc(F)cc1,-1%,-23,1,5,-0.2,
CCOC(=O)C1CCCN(C(=O)c2ccc(Cl)c(S(=O)(=O)N3CCCCC3)c2)C1 (stereo not drawn),7%,-8,/,1,11,
CC(=O)SCCC(=O)Nc1ccccc1,8%,96,-15,-6,2.9,
COC(=O)/C(=C/c1cccnc1)NC(=O)c1ccccc1,-4%,2,-2,5,-0.1,
COC(C[C@H](O)C[C@@H](O)COCc1ccccc1)OC,-10%,/,/,/,0.4,
C[C@H](NC(=O)[C@H]1N2C(=O)c3ccccc3C2SC1(C)C)C(=O)NCc1ccncc1 (stereo partly drawn),/,0,/,/,0.0,
Clc1ccc(Cc2nnc(-c3cccs3)o2)cc1,/,6,-30,-6,5.0,Arbovirus inh repeat=-1
CC(=O)Nc1ccc(S(=O)(=O)NCC(=O)OC(C)c2ccccc2Cl)cc1 (stereo not drawn),0%,1,-18,-1,-0.8,
CCOC(=O)Cn1nnnc1CN(Cc1ccccc1)Cc1cc2cc(CC)ccc2[nH]c1=O,3%,-1,-30,13,1.6,
COC(=O)c1ccc(C(=O)NC2CCCN(Cc3ccc(Cl)cc3)C2)nc1 (stereo not drawn),/,80,/,/,2.4,
Cc1nn(S(=O)(=O)c2ccc(Cl)cc2)c(C)c1S(=O)(=O)N1CCOCC1,/,8,/,/,-2.3,
COc1ccc(C(=O)Nc2nc3nc(-c4ccccc4)cc(=O)n3[nH]2)cc1,6%,/,-40,-2,/,
CCC(=O)N1CC(=O)Nc2ccc(Br)cc2C1c1ccccc1 (stereo not drawn),-1%,-4,/,-13,2.5,
O=C(NCC1COc2ccccc2O1)c1ccco1 (stereo not drawn),-2%,-1,-16,5,1.8,
O=C(COC(=O)c1ccc([N+](=O)[O-])s1)NCc1ccccc1,18%,/,20,-3,1.9,
O=C(Nc1cccc(-c2ccc(N3CCOCC3)nn2)c1)c1ccc(Cl)cc1,/,-4,/,/,-1.5,
CC(=O)N1CCN2C(=O)C1CCCC(=O)c1cc(C(C)C)ccc12 (stereo not drawn),3%,35,-11,7,-2.6,
Cc1ccc(S(=O)(=O)Nc2cccc(C(=O)NCc3ccccn3)c2)cc1F,/,1,/,/,-2.6,
Cc1ccc(C)c(Oc2cc(NC(=O)CCCn3nc(C)c([N+](=O)[O-])c3C)cc([N+](=O)[O-])c2)c1,6%,7,-23,-24,0.7,
CC(C)(C)NC(=O)NC(=O)COC(=O)Cc1coc2ccc3ccccc3c12,75%,?,-7,9,6.4,
C=CCSc1nnc(N2C(=O)C(O)=C(C(=O)c3ccco3)C2c2ccccc2F)s1 (stereo not drawn),/,-2,/,/,-1.5,
CCOc1cc(NC(=O)CCl)c(OCC)cc1NC(=O)CCl,69%,97,/,/,3.6,
NS(=O)(=O)c1ccc(CCN2C(=O)/C(=C\c3ccc(Cl)cc3)SC2=S)cc1,9%,-7,-1,2,7.5,
CC(C)OP(=O)(OC(C)C)C(NC(=O)c1ccccc1Br)C(N)=O (stereo not drawn),1%,-3,/,/,-0.8,
O=C(NNC(=O)c1ccc[nH]1)c1cc(Cl)cc(Cl)c1,/,?,/,/,2.0,
Cc1ccccc1C(C(=O)NC1CCCC1)N(C(=O)CNC(=O)c1ccco1)c1cccnc1 (stereo not drawn),-3%,-9,/,3,-0.2,
CC1=CN2CC(O)CN=C2C=C1 (stereo not drawn),-13%,-12,0,0,1.1,
COc1ccc(N(CC(=O)Nc2cc(OC)c(OC)cc2C(=O)O)S(=O)(=O)c2c(C)noc2C)cc1,/,-1,/,/,-1.7,
O=C(c1ccc2ccccc2n1)N1CCN(c2ccccc2Cl)CC1,5%,5,/,36*,0.7,
S=C(NCCc1ccccc1)NCCc1ccccc1,11%,6,-25,27,1.7,
N#CC1=C(N)Oc2n[nH]c(-c3ccccc3)c2C1c1ccncc1 (stereo not drawn),-4%,8,-29,0,65*,
CC(=O)Nc1ccc(NC(=O)C(C)OC(=O)CNC(=O)c2cccs2)cc1 (stereo not drawn),/,4,/,/,-3.1,
O=C(CCc1ccccc1)Nc1c(F)cccc1F,-12%,6,-12,/,/,
Cc1cccc(NC(=O)Cn2nnc(C(=O)Nc3ccc(F)c(Cl)c3)c2N)c1,/,0,/,/,2.4,
CCc1cc2c(-c3ccccc3)cc(=O)oc2cc1OC(C)C(=O)NCC1CCC(C(=O)O)CC1 (stereo not drawn),/,-4,/,/,17,
COC(=O)CNC(=O)CSc1nnc(-c2ccc(OC)cc2)n1CC(C)C,-18%,-1,-17,11,-1.3,
CCS(=O)(=O)c1nn2c(N)c(/C=C3/C=CC(=O)C(OC)=C3)c(=O)nc2s1,-6%,-1,-29,-4,3.9,
Cc1ccc(C2(C)NC(=O)N(CC(=O)Nc3cc(S(=O)(=O)N4CCCCC4)ccc3OC(C)C)C2=O)cc1 (stereo not drawn),/,3,/,/,2.7,
C=CCN1C(=O)S/C(=C/c2ccc(Sc3nc4ccccc4[nH]3)o2)C1=O,-10%,9,-6,-14,11,
COc1cccc(Nc2nnc(SCC(=O)N(CC(C)C)CC(C)C)s2)c1,13%,-10,-5,-12,/,
O=C(CN1CCN(c2ccc(F)cc2)CC1)NCc1ccc(F)cc1,/,-8,/,/,1.3,
CNc1ccccc(-c2ccc3ccccc3n2)c1=O,4%,-2,-35,1,-16,
CC(OC(=O)CCc1cc(C(C)(C)C)c(O)c(C(C)(C)C)c1)C(=O)NC1CC1 (stereo not drawn),/,-13,/,/,-0.5,
CC1=CC(C)C2C(=O)N(c3ccccc3)NC(=O)C2C1 (stereo not drawn),-7%,-6,-22,-23,-1.9,
CN(CC(=O)NCc1ccc2c(c1)OCO2)S(=O)(=O)c1ccc(Br)s1,7%,-8,-7,-15,1.3,
O=C(Nc1ccc(CN2CCCCC2)cc1)Nc1ccc(Br)cc1Cl,12%,-5,/,-26,-0.1,
COCCNC(=S)N/N=C(\C)c1cccc(OC)c1,-2%,/,/,0,-2.0,
O=C(c1ccc(N2CCOCC2)nc1)N1CCCCC1,-8%,2,-39,-6,-1.7,

# The listing continues.
SMILES,Mtb growth,Mtb betalactam,YopH inh,Arbovirus inh,RecA splice inh,others
Cc1ccc(-c2ccc(C(=O)Nc3ccccc3)o2)c2ccccc12,5%,63,-16,-1,10,
CCn1ncc(C2=NOC(C(=O)NCCc3ccccc3)C2)c1C (stereo not drawn),-1%,-4,17,0,-3.0,
COCCCNc1nc2ccccc2nc1NS(=O)(=O)c1cc(Cl)ccc1Cl,/,-12,/,/,-1.8,
CC(C)Cc1nnc(NC(=O)C23CC4CC(CC(C4)C2)C3)s1,/,76,/,/,-0.9,
O=Nc1ccc(NOC(=O)c2ccccc2Br)cc1,-5%,99,-31,13,-14,
Cc1cccc(OCC(=O)N/N=C/c2cccn2C)c1,0%,45,/,/,1.3,
Cc1[nH]c(=S)c(C#N)c(C)c1CC(=O)c1ccc(Br)cc1,/,4,/,/,-1.6,
O=C(O)CCCNC1=NCCC1,-7%,-10,-40,3,1.0,
Cc1ccc(/C=N/NC(=O)c2ccncc2)s1,?,99,/,/,0.3,
Cc1ccc(NC(=S)Nc2ccc(OC(F)F)c(Cl)c2)cc1F,66%,92,/,-23,/,
COc1cccc(CN2CCN(Cc3ccccc3C(F)(F)F)CC2)c1,/,-9,/,/,1.2,
NC(=O)CSc1nnc(Cn2cnc3ccccc32)o1,6%,2,/,5,3.0,
C=CCN(CC=C)C(=O)COn1nnc2ccc(S(=O)(=O)N3CCOCC3)cc21,/,-13,/,/,-9.5,
CC1CCCC(C)N1C(=O)CN1C(=O)C(C)(C)Oc2ccc(C(=O)NC3CCCC3)cc21 (stereo not drawn),-1%,16,3,-2,2.4,
O=C(Nc1ccccc1)OCc1cc(-c2ccc(Cl)cc2)on1,/,-5,-17,11,2.4,
CC(C)(C)/C=N/NC(=O)CNC(=O)c1ccc2c(c1)OCCO2,-6%,-2,-32,1,-1.9,
Oc1ccc2ccccc2c1/C=N/n1cnnc1,-7%,-2,-26,5,-5.2,
CO/N=C/C(c1ccc(Cl)nc1)S(=O)(=O)c1ccccc1 (stereo not drawn),/,0,/,/,-1.4,
COc1ccc(Br)cc1CN(C)CC(=O)NCCc1ccc(S(N)(=O)=O)cc1,/,6,/,/,0.4,
COc1ccc(NC2=NCC(Cc3ccc(Br)cc3)S2)cc1 (stereo not drawn),10µM*,99,-15,-12,0.8,
O=C(Nc1ccccc1C(=O)NCCCN1CCOCC1)c1ccccc1,/,-2,/,/,1.5,
CCOc1ccc(C(O)(CCC(C)C)C(CN2CCOCC2)c2ccccc2)cc1 (stereo not drawn),/,11,/,/,12,
O=C(NC1CCN(S(=O)(=O)c2ccc(Cl)cc2)CC1)C1CCCCC1,/,0,/,/,0.9,
O=C(NCCCO)/C(=C\c1cn(-c2ccccc2)nc1-c1cccnc1)NC(=O)c1ccccc1,-10%,4,-16,-3,1.1,
COc1ccc(C2SCCN2S(=O)(=O)c2ccc(F)cc2)cc1OC (stereo not drawn),6%,-1,-38,14,0.3,
Cc1ccc(C2C3=C(CC(C)(C)CC3=O)Nc3[nH]c(=S)[nH]c(=O)c32)cc1 (stereo not drawn),-6%,-6,/,3,0.1,
CCOC(=O)c1cnc(SCc2nc(N)nc(Nc3ccccc3OC)n2)nc1N,/,-10,-40,7,-2.6,
COc1ccccc1NC(=O)Cn1c([N+](=O)[O-])cnc1C,/,-3,/,/,2.2,
COc1cccc(C(=O)N2CCN(C(=O)Cc3ccccc3)CC2)c1,-2%,-5,/,6,1.0,
CCc1ccc(N(CC)C(=O)c2ccc3c(Cl)c4c(nc3c2)CCC4)cc1,19%,0,-29,-4,-5.6,
CCCOc1c(Br)cc(C2C3=C(CCCC3=O)N(C)C3=C2C(=O)CCC3)cc1OC,6%,3,-23,3,-398,
Cc1nc(C)c(-c2ccn(C(=O)NC(C)C)n2)s1,1%,-6,/,/,0.3,
COc1ccc(C(=O)NCCc2ccccc2)cc1[N+](=O)[O-],/,-7,/,/,-2.5,
COc1ccc(S(=O)(=O)NCCC(=O)N2CCCC2)cc1N(C)S(C)(=O)=O,/,-6,/,/,-1.4,

# Sorted by SMILES length (rising): 7 of the compounds above
SMILES,Mtb growth,Mtb betalactam,YopH inh,Arbovirus inh,RecA splice inh,others
COCCNC(=S)N/N=C(\C)c1cccc(OC)c1,-2%,/,/,0,-2.0,
CCC(=O)N1CC(=O)Nc2ccc(Br)cc2C1c1ccccc1 (stereo not drawn),-1%,-4,/,-13,2.5,
CC(C)(C)/C=N/NC(=O)CNC(=O)c1ccc2c(c1)OCCO2,-6%,-2,-32,1,-1.9,
CCOC(=O)Cn1nnnc1CN(Cc1ccccc1)Cc1cc2cc(CC)ccc2[nH]c1=O,3%,-1,-30,13,1.6,
CCS(=O)(=O)c1nn2c(N)c(/C=C3/C=CC(=O)C(OC)=C3)c(=O)nc2s1,-6%,-1,-29,-4,3.9,
CCc1cc2c(-c3ccccc3)cc(=O)oc2cc1OC(C)C(=O)NCC1CCC(C(=O)O)CC1 (stereo not drawn),/,-4,/,/,17,
Cc1ccc(C2(C)NC(=O)N(CC(=O)Nc3cc(S(=O)(=O)N4CCCCC4)ccc3OC(C)C)C2=O)cc1 (stereo not drawn),/,3,/,/,2.7,
